Screening data as filed in PubChem.
AID504770 – E. coli YBA685 growth inhibition, screen for V. cholerae RctB inhibitors | actives 0.27% (n = 130,000) | z-score (test concentration not listed) | E. coli YBA685 rctB-dependent plasmid, OD600 growth, 3 h; active compounds read low | AID 504770;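 active = z-score under -2 on both plates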;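 also: wells of about 30 µL received 100 nL stock; score is relative to mean and SD of the test wells; the first replicate is given; strong numbers were not always called active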
Ba CapD inh – inhibitors of Bacillus anthracis CapD enzyme; purified CapD enzyme, fluorescence intensity read-out; active compounds read low; some hits fall short of the stated cut; z-score (test concentration not listed); actives 0.23% (n = 140,000); AID 492967;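 active = z-score under -4 in either of two replicates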;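 also: stock transfer was 100 nL into about 40 µL; score is relative to mean and spread of the plate; one replicate is shown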
* hit, by the source's call; / = not tested or not shown. The list is partial (hit frequency here may not be typical).

SMILES	AID504770	Ba CapD inh
COc1ccc(-c2nc(CN3C(=O)CSc4ncccc43)c(C)o2)cc1OC	0.9	0.04
NC(=O)c1cccn1-c1ncc(C(F)(F)F)cc1Cl	-0.45	-0.025
c1ccc(C2=NNC(=NC3CC3)SC2)cc1	-0.15	/
COc1cc(C#N)ccc1OC(=O)CC1CC2CCC1C2 (stereo not drawn)	0.25	/
O=C(Nc1ccc2c(c1)OCO2)c1ccncc1	-0.95	-0.23
CCc1ccc(CN2CCN(CC)CC2)cc1	0.85	0.055
Cc1cc(N(C)CCC#N)n2nc(C)c(-c3ccc(Cl)cc3)c2n1	-1.6	2.4
Cc1nn(C2CCS(=O)(=O)C2)c(C)c1CN(C)c1ncnc2sccc12 (stereo not drawn)	-0.9	/
O=C(CC1(C(F)(F)F)OCCO1)Nc1ccc(S(=O)(=O)Nc2ncccn2)cc1	0.15	/
O=C1CC(c2ccccc2Cl)Sc2ccccc2N1 (stereo not drawn)	0	-0.85
CC(C)(C)Sc1ccccc1CN1CCN(C(=O)OCC2CCN(O)CC2)CC1	/	-0.84
O=C1CCCC(O)=C1C=Nc1cccc(C(F)(F)F)c1	-0.7	/
CCOc1cc(C(=O)Nc2ccc3oc(-c4ccncc4)nc3c2)cc(OCC)c1OCC	/	2.9
O=[N+]([O-])c1cccc(S(=O)(=O)Nc2cc(Cl)c3oc4c(c3c2)CCCC4)c1	/	-0.47
NC(=O)COC(=O)c1ccc2ccccc2n1	-0.25	/
CS(=O)(=O)c1sc(Cl)c(-c2ccc(Cl)cc2)c1C#N	/	-0.25
O=C(COc1ccc2ccccc2c1Br)NCc1ccccc1	0.25	0.72
Clc1ccc2nc(Cl)cc(-c3ccccc3)c2c1	0.15	-0.53
COC(=O)C1=C(Sc2ccc(Cl)cc2)CSC1	-0.55	-0.3
C/C(=N\c1nc2ccccc2n1C)c1cc(Cl)ccc1O	-0.95	0.16
COC(=O)C1C(=O)c2c(n[nH]c2C)CC1(C)C (stereo not drawn)	-0.25	0.55
CC(=O)S[C@@H]1CC2=CC(=O)CC[C@]2(C)[C@H]2CC[C@@]3(C)[C@@H](CC[C@@]34CCC(=O)O4)[C@H]12	/	0.07
Cc1nn(-c2ccc(F)cc2)c(C)c1/C=C/C(=O)OCC(=O)Nc1sccc1C#N	-1.6	/
CC1(C)CC(=O)C2=C(C1)OC1=C(C(=O)CC(C)(C)C1)C2c1ccc(O)cc1O	/	-0.47
CC(C)OC(=O)c1cc2c(ccn2-c2ccc(F)cc2)n1CC(=O)Nc1ccc2c(c1)OCO2	0.55	/
Other compounds follow:
SMILES	AID504770	Ba CapD inh
CN1C(=O)/C(=N\OC(=O)c2cccc(F)c2)c2ccccc21	-0.3	0.34
CCC1CCCCN1S(=O)(=O)c1ccc(F)c(C(=O)Nc2ccccc2Br)c1 (stereo not drawn)	/	-0.86
Cc1c(Cl)cccc1-n1c(SCC(=O)Nc2ccccc2C(F)(F)F)nc2[nH]ncc2c1=O	/	-0.32
CCCCN1C(=O)C2ON(c3ccccc3)C(c3ccc(OC)cc3)C2C1=O (stereo not drawn)	1.5	-0.57
O=c1[nH]c(O)c(C(c2ccc(F)cc2)N2CCCC2)c(=O)[nH]1 (stereo not drawn)	-0.55	-0.39
O=C(CSc1ccccc1C(=O)N1CCc2ccccc21)NCc1ccco1	-1.2	/
COC(OC)C1(C)NC(=O)c2ccccc2N1 (stereo not drawn)	0	6.7
Cc1ccc(C(=O)Nc2cccc(-c3nc4ccccc4o3)c2)cc1	2.1	-0.42
CC(/C=C/c1ccc(N(C)C)cc1)=N\N=C(/N)SC1CC(=O)N(c2ccccc2)C1=O (stereo not drawn)	0.1	-0.72
CCOc1ccc(OCC)c(Nc2nc3ccc(C)cc3n3nnnc23)c1	-0.3	-0.38
c1nc(NCCc2ccc3c(c2)OCCO3)c2ccsc2n1	0.15	/
COc1cc2ncnc(NNC(=O)c3ccco3)c2cc1OC	-0.45	-0.4
COc1ccc(-n2ncc3c(N4CCN(c5ccccc5OC)CC4)ncnc32)cc1	/	-0.66
CCOC(=O)c1c(C)oc2ccc(OCc3c(OC)ccc4cc(Br)ccc34)cc12	/	-0.4
CCn1nc(C)c(Br)c1-c1nc(-c2cccc(C)c2)no1	-1.1	0.37
Cc1ncoc1C(=O)Nc1ccccc1C(F)(F)F	-0.35	-0.06
CC(C)OC(=O)C(Cc1ccccc1)N1COc2ccc3c4c(c(=O)oc3c2C1)CCC4 (stereo not drawn)	-0.15	61
CC1(C)C2CCC13CSN1OC13C2 (stereo not drawn)	-0.05	0.78
COc1cc(/C=C2/C(=O)N(c3ccc(Br)cc3)N=C2C)cc(OC)c1OC	/	-0.12
O=C(NCc1cccnc1)NC1(c2ccccc2)CC1	-0.8	0.18
O=C(NC(=S)Nc1cc(-c2cccs2)[nH]n1)c1ccccc1	/	0.35
CC1(COC(=O)NNC(=O)/C=C/c2ccco2)COC1	/	0
COc1ccc(NC(=S)Nc2ccc(S(=O)(=O)N3CCOCC3)cc2)cn1	-0.55	-0.14
OC(CN1CCN(C(c2ccccc2)c2ccccc2)CC1)C(F)(F)F (stereo not drawn)	/	-0.075
CN(Cc1ccccc1Cl)C(=O)c1ccc(O)c(Cl)c1	0.55	/
Remaining list, next part.
SMILES	AID504770	Ba CapD inh
COCCN(CCOC)S(=O)(=O)c1ccc(C(=O)Nc2nnc(-c3ccc(F)cc3)s2)cc1	/	3.9
CC1Cc2ccccc2N1C(=O)CCS(=O)(=O)c1ccc2c(c1)CCN2C(=O)C1CC1 (stereo not drawn)	0.65	0.01
COC(=O)Nc1cc(C)nc2ccccc12	-0.25	3
Cc1[nH]nc2cc(F)ccc12	-0.25	-1.2
COc1ccc2c(c1)c(=O)oc1c(C)c3occ(C)c3cc12	0.9	-1.3
CC1CCCCN1c1ccc(NC(=O)c2cccnc2)cc1 (stereo not drawn)	0.25	-0.45
O=C(OCC(=O)C12CC3CC(CC(C3)C1)C2)c1cccs1	1.5	/
COc1ccc(Nc2cc(C(=O)NCC3CCCO3)c3ccccc3n2)c(OC)c1 (stereo not drawn)	-0.35	-0.23
CSC(NCc1ccc(Cl)cc1Cl)=C(C#N)C#N	0.1	/
Cc1cc(C(=O)CSc2nc(N)c(C#N)cc2C#N)c(C)n1-c1ccc2c(c1)OCO2	-0.15	/
O=C(c1cccs1)c1cnc2ncccn12	-1.3	/
COc1cc2c(cc1OC)C1(CCCC1)CN=C2c1ccc([N+](=O)[O-])cc1	/	-0.08
O=C(Nc1c(-c2cccs2)nc2ccccn12)C(c1ccccc1)c1ccccc1	-0.4	-0.55
CCCC(=O)C1C(=O)C=C(C)OC1=O (stereo not drawn)	0.05	0.23
CCCCCCCCCCCCSC1CC(=O)N(c2ccccc2)C1=O (stereo not drawn)	/	1.8
Cn1cnc2onc(C(=O)Nc3ccc(F)cc3)c2c1=O	1.2	-2
O=C(O)c1ccc(Cl)c(N2C(=O)C3C4c5ccccc5C(c5ccccc54)C3C2=O)c1 (stereo not drawn)	/	-0.11
COc1ccc(N2C(=O)C3C(C2=O)N2CCCN2C3c2ccccc2)cc1 (stereo not drawn)	/	0
COc1ccc(-c2nc(CSCC(=O)NC(C)C)c(C)o2)cc1OC	1.6	-0.29
CC(=O)Oc1ccc(C(=O)Nc2cccc(-c3nc4cc(NC(=O)c5ccc(OC(C)=O)cc5)ccc4o3)c2)cc1	/	-0.59
COc1ccc(CCNC(=O)CSc2nc3n[nH]c(C)c3c(=N)n2-c2ccc(C)c(Cl)c2)cc1OC	/	1.7
Cc1ccc(NC(=S)NCC2CCN(C(C)c3ccccc3)C2)cc1 (stereo not drawn)	-0.4	0.58
Cc1nc(CSc2ccc(Cl)cc2)cc(NCc2ccccc2Cl)n1	/	-0.56
NS(=O)(=O)c1ccc(CCNC(=O)c2ccc(Cn3c(=S)[nH]c4cc(C(=O)O)ccc4c3=O)cc2)cc1	/	0.06
COc1ccc2cc(CCNC(=O)C3CC3)c(=O)[nH]c2c1	-1.1	9.4
Next results follow:
SMILES	AID504770	Ba CapD inh
CC(C)N(C(=O)Cc1cccs1)C(C)C	-0.45	0.3
CCOc1ccc(S(=O)(=O)N(CC(=O)N2CCCc3ccccc32)Cc2ccco2)cc1	-1.8	/
CC1CC(C)CN(C(=O)C(Cc2ccccc2)NS(=O)(=O)c2cccc3nsnc23)C1 (stereo not drawn)	2	-0.065
Nc1ccc(Oc2ncc(C(F)(F)F)cc2Cl)cc1	0	0.12
O=C1O[C@@H]2C[C@H]3C[C@@H]2[C@@H]1[C@H]3C(=O)Nc1ccc(C(=O)N2CCCCC2)cc1	-0.75	-0.16
Cc1ccc(NC(=O)CNC2CCCCC2)cc1Cl	-0.6	/
O=C(NC1CCCC1)c1nc(-c2ccc(Cl)cc2)n2c1CCCCC2	-0.25	0.01
O=C(CSc1nnc(NCc2ccccc2)s1)N1CCOCC1	-1.3	/
C=CCN1C(=O)S/C(=C/c2ccc(OC)c(OCC)c2)C1=O	0.05	0.28
O=C(COC(=O)c1ccc(O)cc1)Nc1ccc(N2CCCCC2)cc1	-0.1	/
Nn1c(=O)[nH]c2sc3c(c2c1=O)CCCC3	1.6	-0.63
CC1CCCN(CCC(=O)c2ccc(Br)cc2)C1 (stereo not drawn)	0.4	-2.3
O=C(OC(C(=O)Nc1cc(C(F)(F)F)ccc1Cl)c1ccccc1)c1cccnc1 (stereo not drawn)	-0.95	-0.61
Cc1ccc(C)n1-c1ccc(C(=O)NC2CCC(O)CC2)cc1 (stereo not drawn)	0.65	/
COc1ccc(/C=C2/C(=N)N3N=C(Cc4ccccc4)SC3=NC2=O)cc1OC	2.2	1.2
O=C(NCc1ccco1)c1cc(-c2ccc(F)cc2)no1	2	1.1
CCCCS(=O)(=O)Nc1ccc(C(=O)NCC2CCCO2)cc1 (stereo not drawn)	-1.1	0.045
O=C1c2cccnc2C(=O)N1Cc1ccc(S(=O)(=O)NCc2ccccc2)cc1	2.2	-1.8
O=C(c1ccncc1)N1C2C=CC(C2)C1(C(F)(F)F)C(F)(F)F (stereo not drawn)	0.75	-1.2
CCCCC1(C)NC(=S)N(c2ccc(Cl)cc2)N1 (stereo not drawn)	/	-0.16
CC1=C(CC(=O)NNC(=O)c2ccc(Cn3cnc(Cl)c3Cl)o2)c2cc(F)ccc2/C1=C\c1ccc(S(C)=O)cc1 (stereo not drawn)	/	-1.6
Clc1ncnc2sc3c(c12)CCCC3	-0.1	/
CCOC(=O)Cc1c(C)nc2cc(C)nn2c1C	0.5	/
CCCCc1ccc(C2C3=C(CC(C)(C)CC3=O)N=C3c4ccccc4C(=O)C32)cc1 (stereo not drawn)	/	-0.51
O=C(CSc1cn(CCNC(=O)c2ccccc2)c2ccccc12)Nc1nccs1	-0.65	0.28
(continued)
SMILES	AID504770	Ba CapD inh
COc1ccc(C(=O)N2c3ccccc3C(N(C(=O)c3ccc(OC)cc3)c3ccccc3)CC2C)cc1 (stereo not drawn)	/	0.41
CC(C)n1cc(-c2ccc(C(=O)N3CCc4ccccc4C3)cn2)cn1	/	-0.34
CC(C)c1cc(C(C)C)c(S(=O)(=O)NCCO)c(C(C)C)c1	-0.7	0.19
Nc1ccccc1S(=O)(=O)NC1=NCCCCC1	0.45	/
Cc1ccc(C2=NN(C(=O)CCC(=O)O)C(c3ccc(F)cc3)C2)cc1 (stereo not drawn)	/	0.035
O=C1NC(c2ccccc2)=NC1(Nc1ccccn1)C(F)(F)F (stereo not drawn)	-0.9	-0.33
Cc1ccc2nc(COc3ncnc4ccccc34)cc(=O)n2c1	-1.1	/
CSc1nc(Sc2ccccc2)c2cnn(-c3ccccc3)c2n1	/	-0.06
COc1ccc(C(=O)CSc2ncn(-c3ccccc3)n2)cc1OC	0.45	/
COc1ccc(-n2c(C)nc3cc(C(=O)N4CCC5(CC4)OCCO5)ccc32)cc1	2	0.14
O=S(=O)(N1CCCCC1)N1CCCCC1	0.1	0.43
Cc1ccccc1NC(=O)CN1C(=O)CSc2ccccc21	1.9	-0.04
O=C(OCc1ccccc1)c1ccc2c(c1)OCO2	-0.3	0.36
Cc1cc(NCc2ccccc2)c2ccccc2n1	-0.15	-0.16
Nc1ccc(-c2cnco2)cc1	1.8	2.3
CCC(C)NC(=O)CSc1nnc(-c2ccc(C)c(C)c2)o1 (stereo not drawn)	-0.9	/
CCOC(=O)C1=C(C(C)c2ccccc2)NC(=O)NC1C (stereo not drawn)	-1.1	0.49
CC1=C(C(=O)Nc2ccc(Br)cc2)C(c2ccc(Cl)cc2)NC(=O)N1 (stereo not drawn)	/	-0.61

Molecules from the list above that have a thiophene ring, fused or not (11):
SMILES	AID504770	Ba CapD inh
Cc1nn(C2CCS(=O)(=O)C2)c(C)c1CN(C)c1ncnc2sccc12 (stereo not drawn)	-0.9	/
CS(=O)(=O)c1sc(Cl)c(-c2ccc(Cl)cc2)c1C#N	/	-0.25
Cc1nn(-c2ccc(F)cc2)c(C)c1/C=C/C(=O)OCC(=O)Nc1sccc1C#N	-1.6	/
c1nc(NCCc2ccc3c(c2)OCCO3)c2ccsc2n1	0.15	/
O=C(NC(=S)Nc1cc(-c2cccs2)[nH]n1)c1ccccc1	/	0.35
O=C(OCC(=O)C12CC3CC(CC(C3)C1)C2)c1cccs1	1.5	/
O=C(c1cccs1)c1cnc2ncccn12	-1.3	/
O=C(Nc1c(-c2cccs2)nc2ccccn12)C(c1ccccc1)c1ccccc1	-0.4	-0.55
CC(C)N(C(=O)Cc1cccs1)C(C)C	-0.45	0.3
Nn1c(=O)[nH]c2sc3c(c2c1=O)CCCC3	1.6	-0.63
Clc1ncnc2sc3c(c12)CCCC3	-0.1	/
